Assay outcomes: PubChem, National Center for Advancing Translational Sciences (NCATS)
2A StopGo: FMDV 2A StopGo reporter, luciferase signal. AID 1159524. Potency, µM (top dose mostly 57.9 µM), for inactives: at the highest dose signal change, negative = less light. hit rate 1.2% among 410,000. human cells with a luciferase reporter of 2A StopGo recoding; control for the full effect not named in the record; active = well fitted falling curve with a large enough effect; inconclusive = small, poorly fitted or top-dose-only effect; inactive = no such curve, though single readings can be large or run the other way; tested in HEK293T cells; further: on the % scale 0 is the no-effect control and ±100 the full control effect; nearly all actives have a fitted effect of over 45% in size; luciferase light after 4 h
Cruzain noTriton: cruzain (T. cruzi) inhibition without detergent. P25779. purified cruzain, Z-FR-AMC fluorescence, no detergent. Potency, µM, inactives show max response, negative = inhibition, usual class: inhibitors. hit rate 2.3% among 200,000. AID 1476; active means well fitted curve in the direction sought with a large enough effect; inconclusive means small, poorly fitted or top-dose-only effect, or another doubt; inactive means no such curve, though single readings can be large; an effect the other way counts as inactive or inconclusive;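 further: plate controls were enzyme without inhibitor for no effect and buffer without enzyme for full effect; nearly all actives have a fitted effect of over 40% in size; top concentration of the series not given in the record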
Target sequence (P25779 123-467 limits assumed): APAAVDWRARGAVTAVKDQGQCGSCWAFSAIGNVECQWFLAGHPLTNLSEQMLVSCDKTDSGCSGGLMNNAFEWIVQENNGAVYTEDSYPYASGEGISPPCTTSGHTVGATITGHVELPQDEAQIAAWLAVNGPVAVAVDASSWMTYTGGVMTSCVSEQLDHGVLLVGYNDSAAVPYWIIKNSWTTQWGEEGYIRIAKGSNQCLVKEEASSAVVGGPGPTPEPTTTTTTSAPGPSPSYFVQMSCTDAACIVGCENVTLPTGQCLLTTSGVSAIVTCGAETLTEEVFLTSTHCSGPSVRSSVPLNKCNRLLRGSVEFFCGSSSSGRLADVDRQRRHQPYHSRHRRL
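Purified cruzain at 1.5 nM, pre-incubated 15 min with compound at room temperature in 100 mM sodium acetate pH 5.5, 5 mM DTT, 0.00005% Triton X-100. Reaction started with 2 uM Z-FR-AMC; AMC fluorescence increase over 60 s gives rate.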
Cruzain inh Det: inhibitors of Trypanosoma cruzi cruzain with detergent | purified cruzain, Z-FR-AMC fluorescence, 0.01% Triton | AID 1478 | hit rate 0.43% among 200,000 | Potency, µM, without a hit: max response, negative = inhibition, hits mostly inhibitors | P25779; active means well fitted curve in the direction sought with a large enough effect; inconclusive means small, poorly fitted or top-dose-only effect, or another doubt; inactive means no such curve, though single readings can be large; an effect the other way counts as inactive or inconclusive;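 further: plate controls were neutral wells for no effect and buffer without enzyme for full effect; nearly all actives have a fitted effect of over 40% in size; top concentration of the series not given in the record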
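Cysteine protease activity tested under reducing, mildly acidic conditions (100 mM sodium acetate pH 5.5, 5 mM DTT) plus 0.01% Triton X-100. Cruzain 1.5 nM; substrate Z-FR-AMC 2 uM; 15 min compound preincubation at room temperature.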
Lassa entry inh: Lassa virus entry inhibition | hit rate 1.2% among 300,000 | Lassa virus pseudotype entry inhibition, cell reporter; control for the full effect not named in the record | Potency, µM (titrated, usually from 37.9 µM), inactives show top-dose activity change, negative = inhibition, most hits filed as inhibitors; active means well fitted inhibition curve with a large enough effect; inconclusive means small, poorly fitted or top-dose-only effect, or effect the other way; inactive means flat fitted curve, though single readings scatter; tested in HEK293 cells; further: on the % scale 0 is the no-effect control and ±100 the full control effect; nearly all actives have a fitted effect of over 50% in size; luciferase read-out
MARV entry inh: Marburg virus entry inhibition. Marburg virus pseudotyped entry inhibition, cell reporter; control for the full effect not named in the record; about a third of the inactives were read at about 46 µM. Potency, µM (highest dose often 37.8 µM), for the others: at the highest dose activity change, negative = inhibition, hits mostly inhibitors. hit rate 1.8% among 300,000; active = well fitted inhibition curve with a large enough effect; inconclusive = small, poorly fitted or top-dose-only effect, or effect the other way; inactive = flat fitted curve, though single readings scatter; tested in HEK293 cells; about a fifth of its hits are not listed in these tables; further: on the % scale 0 is the no-effect control and ±100 the full control effect; luciferase read-out
SARS PLpro yeast: blocks SARS-CoV papain-like protease in a yeast assay; S. cerevisiae expressing SARS-CoV PLpro, growth rescue; control for the full effect not named in the record; Potency, µM (series often up to 32.9 µM), for the others: at the highest dose activity, positive = growth rescue; hit rate 0.19% among 330,000; further: 0% is about no effect; nearly all actives have a fitted effect of over 55% in size; growth read by luminescence after 48 h
NS1 inh: blocks influenza NS1 protein function; S. cerevisiae slowed by influenza A NS1, growth recovery by OD600; Potency, µM (titrated, usually from 46.1 µM), for inactives: at the highest dose activity, positive = more growth; hit rate 0.4% among 270,000; further: actives are rising curves; nearly all actives have a fitted effect of over 50% in size
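A cell-based growth assay was used: compounds that relieve NS1-induced slow growth of budding yeast raise OD600. Assay medium was yeast nitrogen base with ammonium sulphate and -URA supplement, pH 6.0, with 2% galactose.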
RE007 growth inh: less growth of the S. pombe RE007 Vpr strain; hit rate 0.21% among 360,000; Potency, µM (series often up to 92.2 µM), for the others: at the top dose activity change, negative = less growth; S. pombe RE007 Vpr strain, BacTiter-Glo ATP luminescence, 24 h; control for the full effect not named in the record; active = well fitted falling curve with a large enough effect; inconclusive = small, poorly fitted or top-dose-only effect; inactive = no such curve, though single readings can be large or run the other way;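 further: on the % scale 0 is the no-effect control and ±100 the full control effect; nearly all actives have a fitted effect of over 50% in size; the assay follows cell death caused by Vpr and the record does not say whether a fall means rescue or toxicity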
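Fission yeast RE007 carrying one integrated HIV-1 vpr copy, seeded at OD 0.01 in PMG+AL medium with 23 nL pinned compound. Grown 24 h at 30 degrees; viability read by BacTiter-Glo luminescence after 5 min.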
Numbers without * were called inactive; ? = inconclusive; . = no result given; & = joins results of further samples; [ ] = another dose, or the depositor's remark. Unless noted, the call rests on the fitted dose curve; in most records, active means well fitted rising curve with a large enough effect; inconclusive means small, poorly fitted or top-dose-only effect; inactive means no such curve, though single readings can be large or run the other way. Potency means the concentration at half of the fitted maximal effect. Compounds as they come; about 4.6% have a hit in one of these screens.

SMILES	2A StopGo	Cruzain noTriton	Cruzain inh Det	Lassa entry inh	MARV entry inh	SARS PLpro yeast	NS1 inh	RE007 growth inh
COCCN(C(=O)CCC(=O)Nc1cc(C)on1)C(C(=O)NC(C)(C)C)c1ccc(OC)cc1 (stereo not given)	10%	.	.	-18%	-21%[46.1 µM]	1%	9%	-5%
CN(Cc1ccccc1)c1nc(N)nc(Cl)c1C=O	?	.	.	-2%	?	2%	.	42%
Cc1cccc(NC(=O)CN(C)C(=O)C2CC2)c1C	-13%	.	.	6%	1%	-1%	.	10%
CC(C)c1ccccc1NS(=O)(=O)N(C)C	8%	.	.	0%[46.1 µM]	16%[46.1 µM]	0%	6%	8%
O=C1c2ccccc2C(=O)N1c1ccc(Cl)cn1	11%	4%	-1.3%	20%	-5%	-8%	-2%	11%
CC(C)c1ccc(OC(=O)NCCO)cc1	0%	-4%	0.7%	?	?	-4%	4%	7%
CC(=O)NC1C(=O)N=C(SCC(=O)Nc2ccc(C(F)(F)F)cc2Cl)NC1=O (stereo not given)	-18%	.	.	-20%	-4%	2%	.	6%
COCCCNCCOCCOc1ccc(Cl)cc1C(C)(C)C	-25%	-2%	-2.0%	?	5.8µM*	-45%	-16%	8%
COCCNC(=O)COC(=O)c1ccc(OCC(=O)Nc2ccccc2OC)c(OC)c1	?	.	.	.	.	3%	1%	-9%
CCC(C)(C)n1nnnc1C(C(C)C)N1CCN(C(=O)c2ccco2)CC1 (stereo not given)	3%	.	.	0%[46.1 µM]	?	1%	-1%	-3%
CCOc1nc(SCCOc2ccc(Cl)cc2Cl)nc(N(C)C)n1	?	-3%	-12%	18%	?	-38%	-23%	-3%
O=C(O)C1CCCCC1C(=O)NCCCN1CCCC1=O (stereo not given)	-2%	.	.	-30%[46.1 µM]	3%[46.1 µM]	-4%	12%	2%
O=C1C2C(c3cccc(/C=C/c4ccccc4)c3)CC=CC2C(c2ccc(C(F)(F)F)cc2)N1Cc1ccccc1 (stereo not given)	-12%	.	.	.	.	1%	-1%	18%
COc1ccc(NC2CCCN(C(=O)c3ccc(C)nc3)C2)cc1 (stereo not given)	-13%	.	.	-8%	4%	1%	-19%	10%
Cc1nc2ccc(NC(=O)c3ccc([N+](=O)[O-])cc3)cc2s1	-7%	2%	-2.3%	2%	?	-23%	0%	-9%
CC(NC(=O)C1CCC(C(C)(C)C)CC1)C(c1ccccc1)N1CCOCC1 (stereo not given)	-15%	.	.	-5%[46.1 µM]	?	0%	.	2%
CCOC(=O)c1c(-c2ccccc2)cn2c(C)cc(C)nc12	-7%	.	.	?	0%[46.1 µM]	1%	-3%	-16%
O=C(OC(C(=O)NCc1ccccc1)c1ccccc1)c1ccco1 (stereo not given)	7%	.	.	16%[46.1 µM]	11%[46.1 µM]	2%	-2%	-4%
C=CCn1c(SCC(=O)Nc2sccc2C(N)=O)nc2sc(C)c(C)c2c1=O	-24%	-10%	-3.0%	?	?	-3%	-19%	-4%
COc1ccc(OCc2n[nH]c(=S)n2-c2ccc(C)cc2)cc1	-3%	.	.	.	.	1%	6%	-2%
CCNC(=O)/C(C#N)=C/c1c(N2CCN(C)CC2)nc2c(C)cccn2c1=O	-7%	.	.	7%	?	-4%	2%	3%
CC(=O)c1c(C)[nH]c(C(=O)OCC(=O)NCCc2ccc(Cl)cc2)c1C	-3%	-9%	4.8%	?	?	-4%	5%	-1%
COc1cc(/C=C2\SC(=S)N(CC(=O)Nc3cccnc3)C2=O)cc(OC)c1OC	?	?	-7.5%	6%	24%[46.1 µM]	25%	16%	-4%
CCOc1ccc(S(=O)(=O)Nc2cccc(-c3ccc(N4CCC(C)CC4)nn3)c2)cc1	50%[activator]	-23%	-4.6%	-4%[46.1 µM]	.	.	.	.
Cc1c(NC(=O)COC(=O)C(c2ccc(Cl)cc2)C(C)C)c(=O)n(-c2ccccc2)n1C (stereo not given)	?	28%	-1.2%	-15%	-10%	-5%	4%	-3%
O=C(NC(=S)NCc1cccnc1)c1ccccc1F	14%	.	.	?	11%[46.1 µM]	1%	6%	-8%
Nc1ccc(S(=O)(=O)NNC(=O)C(=O)NNc2ccccn2)cc1	-5%	-3%	3.7%	0%	0%	2%	-12%	-1%
Cc1cccc(NC(=O)Cn2nc(-c3ccco3)ccc2=O)c1C	-26%	.	.	12%	0%[46.1 µM]	5%	4%	26%
Cc1ccc(N2CC(c3nnc(Cc4ccc(F)cc4)o3)CC2=O)cc1 (stereo not given)	-6%	1%	0.2%	5%[46.1 µM]	0%[46.1 µM]	.	.	.
C=CCOc1ccc(CN(C)C(=O)C2CCCO2)cc1 (stereo not given)	5%	.	.	10%	2%[46.1 µM]	-3%	5%	-17%
Cc1ccc(S(=O)(=O)N2CCCCC2)cc1C(=O)NCc1ccncc1	-6%	.	.	-19%[46.1 µM]	-18%[46.1 µM]	2%	3%	4%
CN1CCS/C1=C/C=C1\SC(=S)N(CC(=O)O)C1=O	-4%	.	.	-18%[46.1 µM]	5%[46.1 µM]	0%	3%	-30%
CCOc1cc(C(=O)N/N=C(\C)Cc2ccc(OC)cc2)cc(OCC)c1OCC	-24%	2%	-0.7%	?	-26%	22%	10%	.
Cc1cc(CCN2CCC(=O)NC2=S)ccc1OC(C)C	2%	-19%	2.3%	0%	-8%	-3%	14%	15%
O=c1c2c(-c3ccccc3)csc2nc2n1CCC2	?	-3%	5.2%	7%	5%	-5%	-47%	-20%
COc1cccc(C2NC(CCSC)(C(=O)O)C3C(=O)N(C(C)C)C(=O)C23)c1O (stereo not given)	-9%	4%	2.4%	.	.	-9%	-3%	-10%
O=c1[nH]nc(-c2ccc(F)cc2)cc1Cc1ccccc1	-4%	.	.	.	.	-3%	3%	1%
CC(=C/c1ccc(C(C)C)cc1)/C=N/NC(=O)c1ccncc1	-25%	-3%	-5.3%	?	2%	14%	1%	2%
Cc1ccc(S(=O)(=O)N2CCC(=O)N(C(COCc3ccc(Cl)cc3)Cc3ccccc3)CC2)cc1 (stereo not given)	-29%	-9%	-2.4%	?	-26%	-26%	?	4%
CCCCn1c(CN2CCN(C(=O)OCC)CC2)nc2c1c(=O)n(C)c(=O)n2C	-6%	19%	3.0%	-2%	-2%	-27%	-3%	2%
O=C(CC1C(=O)NCCN1Cc1cccc(Oc2ccccc2)c1)NCCc1ccncc1 (stereo not given)	-13%	.	.	.	.	1%	-9%	-1%
O=C(c1ccco1)N1CCCN(Cc2nc(-c3cccs3)no2)CC1	-12%	.	.	.	.	0%	1%	-6%
CCOc1ccc(Br)cc1/C=N/O	.	-9%	-2.4%	4%	-12%	.	-86%	9%
COc1ccccc1OC(C)C(=O)Nc1nc(-c2ccc(S(=O)(=O)N3CCOCC3)cc2)cs1 (stereo not given)	-23%	-18%	0.6%	?	?	-8%	-4%	1%
Cc1cnc(C(=O)OCC(=O)NC(=O)NC(C)C)cn1	-24%	1%	0.0%	10%	?	-1%	1.4µM*	-1%
Cc1ccc(-c2ccc(=O)n(CC(=O)Nc3cccc(C#N)c3)n2)cc1	-25%	8%	8.6%	12%[46.1 µM]	23%[46.1 µM]	.	.	.
Cc1ccc(Cn2cc(C=O)c3ccccc32)cc1	-28%	.	.	?	1.4µM*	-2%	-1%	28%
S=c1[nH]nc(-c2ccc3ccccc3n2)n1Cc1ccccc1	-18%	-20%	-6.6%	0%	6%	14%	-5%	-7%
CCC(CC)c1nnc(NC(=O)CCc2ccccc2OC)s1	8%	.	.	8%[46.1 µM]	-20%[46.1 µM]	11%	10%	-20%
Cc1ccc(NC(=O)C2C3C=CC4(O3)C2C(=O)N(CCCN2CCCCC2)C4C(=O)NC2CCCCC2)cc1C (stereo not given)	-6%	.	.	.	-18%[46.1 µM]	0%	-10%	11%
O=C(c1cccc(F)c1)N1CCN(C(=O)C2CC2)CC1	?	6%	0.9%	1%	-1%	10%	7%	0%
COc1ccc(CNC(=O)CCC2N=C3c4ccccc4N=C(SCc4cccc(F)c4)N3C2=O)cc1 (stereo not given)	-6%	29%	2.9%	?	.	.	.	.
Cc1ccc(-c2nnc(COC(=O)c3ccco3)o2)cc1	55%[activator]	.	.	.	.	0%	-26%	-4%
O=c1[nH]c(=O)n(Cc2ccccc2Cl)c(O)c1/C=C1/C=CC=N1	-29%	.	.	?	?	-4%	.	-5%
COc1ccc(Cl)cc1-c1nc(-c2ccc(Br)o2)no1	6%	7.9µM*	9.8%	.	2%	0%	-11%	2%
CSc1nnc(C2CCN(CC(=O)Nc3ccccc3N3CCOCC3)CC2)n1C(C)C	7%	.	.	.	3%[46.1 µM]	5%	-6%	-2%
COc1ccccc1C(=O)Nc1cc2cc(Br)ccc2oc1=O	7%	16µM*	-1.6%	10%	18%	10%	-5%	8%
COCCN1CCN(C(=O)c2ccc3oc(CCCc4ccccc4)nc3c2)CC1	36%[activator]	.	.	21%	-3%[46.1 µM]	-4%	-11%	15%
CCCC1=C(C(=O)OCC)C(c2cc(Cl)cc(OC)c2OCc2ccccc2)NC(=O)N1 (stereo not given)	-26%	-11%	-1.8%	?	?	-7%	13%	13%
COc1ccc(-c2cc3nc(C)c(CCC(=O)Nc4cccc(C(F)(F)F)c4)c(C)n3n2)c(OC)c1	-10%	?	3.4%	4%[46.1 µM]	17%[46.1 µM]	.	.	.
CC1CCN(S(=O)(=O)c2ccc3c(c2)N(CC(=O)NCCCN2CCCC(C)C2)C(=O)CS3)CC1 (stereo not given)	-6%&-10%	-4%	0.9%	7%[46.1 µM]	.	-2%	-22%	0%

Some values from the entries so far:
O=C(c1cccc(F)c1)N1CCN(C(=O)C2CC2)CC1 @ SARS PLpro yeast = 10%
O=c1[nH]nc(-c2ccc(F)cc2)cc1Cc1ccccc1 @ NS1 inh = 3%
